# MT1-MMP reporter: inhibitors of MT1-MMP promoter transcription, cell-based, luciferase reporter, luminescence (AID 618). hit rate 0.62% among 87,000. MT1-MMP promoter luciferase reporter cells, luminescence. calls from a first round at 10 µM; hits with a dose series show EC50 in µM;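 active = over half of the reporter light lost at 10 µM or EC50 under 50 µM; inactive = the rest and hits that failed the dose series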;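 note: actives suppress MT1-MMP promoter-driven transcription so potencies describe inhibitors; HT1080 fibrosarcoma cells; overnight exposure; toxic or luciferase-blocking compounds were not removed from the actives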
# WNV protease inh: inhibitors of West Nile virus NS2B-NS3 protease; P06935; WNV NS2B-NS3 protease, fluorogenic substrate Ex360/Em465; hits give low values; z-score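 (tested at a level between 10 and 100 µM)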; hit rate 0.18% among 65,000; AID 577;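 active = z-score at -3 or under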;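 note: score is relative to mean and spread of the compound wells of a plate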
# Target sequence (P06935 1371-1501 limits assumed): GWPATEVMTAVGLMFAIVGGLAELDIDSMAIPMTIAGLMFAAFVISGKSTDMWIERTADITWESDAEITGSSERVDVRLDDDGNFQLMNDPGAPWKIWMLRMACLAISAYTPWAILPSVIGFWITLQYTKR
# Target sequence (P06935 1502-1679 limits assumed): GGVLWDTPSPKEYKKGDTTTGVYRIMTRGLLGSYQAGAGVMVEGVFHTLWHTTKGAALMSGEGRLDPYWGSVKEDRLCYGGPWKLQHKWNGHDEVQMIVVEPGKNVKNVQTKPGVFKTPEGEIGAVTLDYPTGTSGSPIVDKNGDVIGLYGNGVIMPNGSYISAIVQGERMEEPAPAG
# Hsc70: Hsc70 inhibitors, probe displacement, primary screen, biochemical, fluorescence polarization (AID 568); Hsc70 fluorescence polarization, probe displacement; higher % means a stronger effect; strong numbers were not always called active; displacement, % at 20 µM; hits with a dose series show IC50 in µM; 83,000 tested, under 10 active;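 active = displacement above 50% without optical interference and an IC50 on retest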;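 note: ATPase domain with a fluorescein-tagged ATP probe; 0% = vehicle and 100% = excess ADP; read after one hour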
# Active calls of the source: *; i = inactive; . = not tested or not shown; + = active, no number; & = joins results of further samples.
# Values run as follows: MT1-MMP reporter	WNV protease inh	Hsc70
CCc1ccccc1NS(=O)(=O)c1ccc2[nH]cc(C(=O)NCC3CCCO3)c(=O)c2c1 (centres undefined)
    i	-0.67	0.1%
CCOC(=O)c1[nH]c2cc(OC)c(OC)cc2c1NC(=O)CN1CCN(c2ccc(OC)cc2)C(C)C1 (centres undefined)
    i	.	2.5%
COc1ccc(N2CC(C(=O)NCCCN3CCOCC3)CC2=O)cc1 (centres undefined)
    i	-0.44	-2.1%
O=C(Nc1cccc(-c2nnc(-c3ccco3)o2)c1)C(c1ccccc1)c1ccccc1
    i	.	-1.3%
COc1cc(-c2nc(-c3ccccc3)c(-c3cc([N+](=O)[O-])ccc3C)[nH]2)cc(OC)c1OC
    i	.	-3.0%
CCOC(=O)c1sc2nc(SCC#N)n(CC3CCCO3)c(=O)c2c1C (centres undefined)
    i	-1.2	1.2%
O=C(NCCN1CCOCC1)c1cc(-c2cccs2)on1
    i	-0.64	6.7%
O=C(NCCC1=CCCCC1)C1CCCN(S(=O)(=O)c2cnc[nH]2)C1 (centres undefined)
    i	0.38	-0.9%
O=C(Cn1cnc2c(nnn2Cc2ccc(Cl)cc2)c1=O)N1CCN(c2ccccc2)CC1
    i	0.01	5.8%
CCC(C)Oc1ccccc1C1CC(=O)NC2=C1C(=O)CCC2 (centres undefined)
    i	-0.86	-2.5%
CCc1cc2c(=O)c(-c3nc4ccccc4[nH]3)coc2c(CN2CCCC(C)C2)c1O (centres undefined)
    i	-1.2	4.3%
O=c1cc(-c2ccccc2)nc2nc[nH]n12
    i	.	1.5%
CCOC(=O)C1CCCN(CC(=O)Nc2c(C(=O)OC)[nH]c3ccc(C)cc23)C1 (centres undefined)
    i	0.8	-2.7%
COc1ccc(CNc2ccc(C)cc2)cc1Br
    i	.	0.1%
Cc1cc(Cl)cc2c1NC(=O)[C@]21[C@@H]2C(=O)N(Cc3ccccc3)C(=O)[C@@H]2[C@@H]2CCCN21
    i	0.26	-9.0%

# Additional entries follow:
# Values run as follows: MT1-MMP reporter	WNV protease inh	Hsc70
O=C(CCCCCN1C(=O)c2ccccc2C1=O)NCc1ccco1
    i	-0.56	-1.6%
COc1ccc(N(CC(=O)N2CC=C(c3ccccc3)CC2)S(=O)(=O)c2c(C)noc2C)cc1
    i	-1.4	-0.9%
COc1ccc(C(=O)c2c(C(F)(F)F)oc3c2C(=O)c2ccccc2C3=O)cc1
    i	.	-2.3%
COc1cc(C2C3=C(CC(C)(C)CC3=O)Nc3c2c(=O)[nH]c(=O)n3Cc2ccccc2)ccc1O (centres undefined)
    i	0.5&-0.64	4.8%
CCN1CCCC1CNC(=O)Cn1cccc1C(=O)c1ccccc1 (centres undefined)
    i	0.08	8.1%
Cc1cccc(-c2c3c(=O)n(C)c(=O)n(C)c3c3cccnn23)c1
    i	-0.6	21%
OC(CCCN1CCC(O)(c2ccc(Cl)cc2)CC1)c1ccc(F)cc1 (centres undefined)
    i	-1	16%
CCOC(=O)CS(=O)(=O)c1nc(-c2ccccc2)cc(C(F)(F)F)n1
    i	-0.33	4.7%
COc1cc(-c2noc(CCCC(=O)NCc3ccccc3)n2)cc(OC)c1OC
    i	.	2.7%
O=c1[nH]c(=O)n(CCOc2ccc(Cl)cc2)cc1Br
    i	-0.92	-1.2%
CC(=O)c1ccc(N2CCN(C(=O)c3cc4c(=O)n(C)c5ccccc5c4n3C)CC2)cc1
    i	-1	-6.6%
COc1cc(/C=C/C(C)=O)cc(OC)c1OC
    i	.	-0.1%
CCCc1nc2scc(-c3ccccc3)c2c(=O)n1N
    i	0.43	-0.9%
Cc1cc(Nc2ccccc2)nc(-c2ccccc2O)n1
    i	0.69	4.8%
CCOC(=O)c1sc2nc(N3CCCC3)c3c(c2c1N)CC(C)(C)OC3
    i	-0.18	-5.5%

# One compound at a time, from the list above. Screens in order: MT1-MMP reporter, WNV protease inh, Hsc70
# Record of O=C(CCCCCN1C(=O)c2ccccc2C1=O)NCc1ccco1 → i, -0.56, -1.6%
# Record of CCCc1nc2scc(-c3ccccc3)c2c(=O)n1N → i, 0.43, -0.9%
# Record of O=c1[nH]c(=O)n(CCOc2ccc(Cl)cc2)cc1Br → i, -0.92, -1.2%
# Record of CCOC(=O)c1sc2nc(N3CCCC3)c3c(c2c1N)CC(C)(C)OC3 → i, -0.18, -5.5%
# Record of CCN1CCCC1CNC(=O)Cn1cccc1C(=O)c1ccccc1 (centres undefined) → i, 0.08, 8.1%

# Additional structures.
# Values run as follows: MT1-MMP reporter	WNV protease inh	Hsc70
CCOC(=O)N1CCN(C(=O)c2ccc(S(=O)(=O)c3ccc(C)cc3)c(NC(C)=O)c2)CC1
    i	0.25	1.5%
COc1cc(S(=O)(=O)NCCN2CCOCC2)c(OC)cc1Cl
    i	-0.32	-1.3%
COc1ccc(/C(O)=C2/C(=O)C(=O)N(CC3CCCO3)C2c2cccc(OC)c2)cc1 (centres undefined)
    i	-0.19	-2.0%
CCc1nnc(NC(=O)c2ccc(S(=O)(=O)N3CCN(Cc4ccccc4)CC3)cc2)s1
    i	0.73	6.0%
Cc1ccc(S(=O)(=O)NC(CC(=O)NCC2CCCO2)c2ccco2)cc1 (centres undefined)
    i	-1.4	1.9%
Cc1noc(C)c1CSc1nc2[nH]ncc2c(=O)n1-c1ccccc1
    +	0.57	-5.5%
C=CCNc1nc(N2CCOCC2)nc(N2CCOCC2)n1
    i	.	1.1%
Cc1ccc(C(=O)N2CCN(C(=O)c3ccc(C)c(C)c3)C(C)C2)cc1C (centres undefined)
    i	-1.1	0.9%
O=C(c1cccc(C(F)(F)F)c1)N1CCCC1
    i	-0.34	2.3%
COc1nc(-c2ccccc2)ccc1-c1noc(-c2ccc(F)cc2)n1
    i	0.63	-0.2%
Cc1nc(N2CCN(S(=O)(=O)c3cccc4nonc34)CC2)c2c3c(sc2n1)CCCC3
    i	-0.03	-8.1%
COc1ccc(OCCCC(=O)N2CCCc3ccccc32)cc1
    i	-0.39	-4.5%
COc1cc(OC)nc(NC2OC(=O)c3ccccc32)n1 (centres undefined)
    i	0.43	-1.7%
O=C1C(c2ccc(F)cc2)N(Cc2ccc3c(c2)OCO3)C(=O)CN1C1CCCC1 (centres undefined)
    i	0.06	1.2%
O=C(NC1=NCCS1)c1ccc(OCC2CCCO2)cc1 (centres undefined)
    i	0.56	-2.7%

# Following part
# Values run as follows: MT1-MMP reporter	WNV protease inh	Hsc70
COC(=O)C1=C(N)OC2=C(C(=O)CCC2)C1c1cccs1 (centres undefined)
    i	-0.01	0.8%
COc1cccc(C2N(c3ccc(Cl)cc3)C(=O)C3CCCN32)c1 (centres undefined)
    i	-1.2	-2.2%
Cc1ccc(OCc2nc(C#N)c(NCc3ccco3)o2)cc1
    i	-1.4	0.1%
Cn1c2c(c(=O)n(C)c1=O)C(CC(=O)Nc1ccccc1)C(=O)N2 (centres undefined)
    i	0.53	0.2%
O=C(CSc1nnc(-c2cccnc2)n1-c1ccccc1)Nc1ccccc1
    i	.	-2.7%
Cc1onc(-c2ccccc2Cl)c1C(=O)N(C)C1CCCCC1
    i	0.01	-0.9%
CCSc1nnc(NC(=O)Cc2ccccc2OC)s1
    i	.	7.3%
CN1CCc2c(sc3c2C(=O)NC(c2cn(Cc4ccccc4)c4ccccc24)N3)C1 (centres undefined)
    i	-0.49	-50%
COc1ccc(N2CCN(c3ccc(NC(=O)c4ccc5c(c4)OCO5)cc3C#N)CC2)cc1
    i	-0.57	3.2%
O=C(c1cc2n(n1)C(C(F)(F)F)CC(c1ccco1)N2)N1CCN(c2ccccn2)CC1 (centres undefined)
    i	0.9	-6.0%
O=C(Nc1ccc(C(=O)N2CCCC2)cc1)c1ccccc1F
    i	-1.1	4.9%
COc1ccc(OCc2cccc(C(=O)N3CCCC3)c2)cc1
    i	0.5	5.9%
O=C(NCC(=O)N(Cc1ccccc1)C(C(=O)NC1CCCCC1)c1ccco1)c1ccco1 (centres undefined)
    i	.	6.0%
CC(=O)c1cccc(NC(=O)c2ccco2)c1
    i	-0.31	1.1%
COc1ccc(N(CC(=O)NCCSc2ccccn2)S(C)(=O)=O)cc1Cl
    i	-1.3	1.9%

# Ordered by number of heavy atoms (ascending): some entries from above
# Values run as follows: MT1-MMP reporter	WNV protease inh	Hsc70
Cc1ccc(OCc2nc(C#N)c(NCc3ccco3)o2)cc1
    i	-1.4	0.1%
CN1CCc2c(sc3c2C(=O)NC(c2cn(Cc4ccccc4)c4ccccc24)N3)C1 (centres undefined)
    i	-0.49	-50%
O=C(NCC(=O)N(Cc1ccccc1)C(C(=O)NC1CCCCC1)c1ccco1)c1ccco1 (centres undefined)
    i	.	6.0%

# More entries.
# Values run as follows: MT1-MMP reporter	WNV protease inh	Hsc70
Cc1ccccc1-n1nnnc1SCC(N)=O
    i	1.9	-4.6%
CCOC(=O)C1=C(C)N=C2SC(C)C(=O)N2C1c1ccc(OC(C)=O)c(OCC)c1 (centres undefined)
    i	0.54	3.8%
CCN(c1ccccc1)S(=O)(=O)c1ccc(OCC(=O)Nc2cc(C)on2)cc1
    i	.	-2.7%
CCOC(=O)CSC1=C(C#N)C(c2ccc(OC)cc2)C2=C(CC(C)(C)CC2=O)N1 (centres undefined)
    i	-0.78	4.7%
COc1ccccc1N1CCN(C(=O)CSc2nc3ccccc3[nH]2)CC1
    i	.	1.6%
CCOc1ccc(Cl)cc1/C=N/O
    i	-0.74	6.0%
CCOC(=O)c1c(NC(=O)Cc2cccs2)sc2c1CCCC2
    i	-0.67	-2.2%
COc1ccc(N(CC(=O)NCc2ccco2)S(C)(=O)=O)cc1
    i	-1.7	-1.4%
COc1ccc(/C(O)=C2\C(=O)C(=O)N(CCN3CCOCC3)C2c2ccccc2OC)cc1 (centres undefined)
    i	-0.57	-3.3%
O=C(CCC(=O)N(CC(=O)NC1CCCCC1)c1ccc2c(c1)OCO2)Nc1ccccn1
    i	-0.43	-0.8%
COc1cc(CC(=O)Nc2sccc2C(N)=O)cc(OC)c1OC
    i	-0.9	-34%
CC(=O)N1CCN(c2ccc(NC(=O)c3ccc(C)cc3)cc2)CC1
    i	.	0.8%
COc1cccc(Nc2nc(N)nc(C(F)(F)F)n2)c1
    i	1.8	-10%
Cc1cc(N2CCOCC2)nc(NCc2ccccc2)n1
    i	-0.19	-5.2%
O=C(O)Cc1ccc(-c2ccccc2)cc1
    i	-0.17	1.0%

# Later entries.
# Values run as follows: MT1-MMP reporter	WNV protease inh	Hsc70
CCS(=O)(=O)c1ccc(NC(=O)c2ccccc2Cl)c(O)c1
    i	-0.82	-5.7%
O=C(c1cc2cc(Cl)cc(Cl)c2oc1=O)N1CCOCC1
    i	-1	1.6%
Cc1cccc(N2C(=O)CC(N3CCOCC3)C2=O)c1 (centres undefined)
    i	2	-6.8%
CC(C)c1ccc2oc(=O)cc(CN3CCN(c4ccccc4)CC3)c2c1
    i	-0.56	2.2%
N=c1n(CCO)c2ccccc2n1CCOc1ccccc1
    i	1	-2.1%
CC(C)C(=O)Nc1cc(C(F)(F)F)ccc1N1CCOCC1
    i	0.49	1.0%
Cc1ccccc1NC(=O)C1CCCN1C(=O)NC1CCCCC1 (centres undefined)
    i	-0.14	-3.8%
CCCn1c(=O)c2ccccc2n2c(SCc3cc(=O)n4ccsc4n3)nnc12
    i	0.07	-2.1%
CCCn1c(NC(=O)c2ccco2)nc2ccccc21
    i	0.07	0.1%
CN(C)c1nc(N(C)C)nc(N(C#N)CCOc2ccccc2)n1
    i	.	-8.3%
Cc1cccc(C)c1N(CC(O)Cn1c2ccccc2c2ccccc21)S(C)(=O)=O (centres undefined)
    i	.	-2.3%
CCn1cc(C(=O)OCc2cccc(Br)c2)c(=O)c2ccc(C)nc21
    i	-0.84	-0.3%
O=S(=O)(NC1CC1)c1cccc(S(=O)(=O)N2CCCC2)c1
    i	0.59	9.1%
CCOC(=O)N1CCN(S(=O)(=O)c2cc(Br)cc3c2N(C(=O)C2CC2)CC3)CC1
    i	-0.22	-2.1%
Cn1c(CCNC(=O)c2ccccc2)nc2cc(NC(=O)C3CCCCC3)ccc21
    i	.	-0.5%

# (cont.)
# Values run as follows: MT1-MMP reporter	WNV protease inh	Hsc70
COc1cccc(CNCC(=O)N2C(C)CCCC2C)c1 (centres undefined)
    i	0.23	-1.1%
COc1ccc(-n2c(C)c(C(C)=O)c(C(C)=O)c2C)cc1OC
    i	0.4	0.8%
CC(=O)Nc1cccc(NC(=O)CSc2nnc(Cc3cccn3C)n2CCc2ccccc2)c1
    i	-0.68	-4.4%
CC(=NCc1ccco1)c1c(O)n(C2CCCCC2)c(=O)[nH]c1=O
    i	-0.07	6.0%
CC(C)(C)C1CCC(OC(=O)c2ccncc2)CC1 (centres undefined)
    i	3	0.0%
Cn1nc(C(=O)NCC2CCCO2)c2ccccc2c1=O (centres undefined)
    i	0.38	-2.6%
CN(C)S(=O)(=O)N(CC(=O)Nc1ccccc1C(F)(F)F)c1ccccc1
    i	-1.4	2.2%
O=c1[nH]c2ccccc2nc1C(Cl)c1ccccc1 (centres undefined)
    i	.	0.6%
O=C1c2ccsc2SCCN1Cc1c(Cl)cccc1Cl
    i	.	-3.2%
O=C(CSc1nnc(-c2cccnc2)n1-c1ccccc1)N1CCN(c2ccc(F)cc2)CC1
    i	.	1.3%
CCOC(=O)N1CCN(C(=O)CN(c2cccc(C)c2)S(=O)(=O)c2ccccc2)CC1
    i	-0.64	8.9%
Cc1cccc(-c2nnc(SCc3ccccc3)o2)c1
    i	.	2.3%
O=C(O)C1Cc2c([nH]c3ccccc23)C(c2ccc3c(c2)OCO3)N1 (centres undefined)
    i	1.3	0.9%
